Rce1 inh: yeast Ras-converting enzyme inhibition; Q03530; yeast membranes, quenched prenylated peptide cleavage fluorescence; calls only; 290,000 compounds, 0.27% hits;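 active = fall in fluorescence gain of 50% or more versus controls, with final raw signal at or below 3038400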;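 note: plate controls were neutral control wells for no effect and wells lacking membranes for full effect; tested at 10 µM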
Target sequence (Q03530 whole entry, looked up): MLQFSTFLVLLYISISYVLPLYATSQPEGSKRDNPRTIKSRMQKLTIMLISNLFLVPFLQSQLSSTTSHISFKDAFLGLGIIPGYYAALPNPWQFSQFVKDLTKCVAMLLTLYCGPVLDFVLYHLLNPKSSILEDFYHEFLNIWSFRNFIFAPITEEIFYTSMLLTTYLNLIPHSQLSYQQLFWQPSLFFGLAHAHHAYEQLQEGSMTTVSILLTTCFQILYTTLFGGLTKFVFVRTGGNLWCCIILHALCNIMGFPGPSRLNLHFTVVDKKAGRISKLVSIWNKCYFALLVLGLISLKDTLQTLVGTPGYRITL
eIF4H FP inh: inhibitors of RNA binding by human eIF4H | eIF4H fluorescence polarization binding assay | AID 2012 | inhibition, % at 35 µM | 290,000 compounds, 0.94% hits | Q15056;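 active = 50% or more with normal probe brightness, or confirmed in later tests; about a fifth of its hits are not listed in these tables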;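 note: calls also rest on retests at 20 µM and on dose response follow-up; 0% = protein and probe with vehicle and 100% = probe without protein; strong numbers were not always called active; many hits fall short of the cut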
MT1-MMP act inh: MT1-MMP (human) activation inhibition | P50281 | HT1080 RFP-PRO-GFP cells, GFP/RFP ratio fluorescence, overnight; percent of plate control window, DMSO zero | GFP/RFP ratio change, % at 20 µM | 360,000 compounds, 0.061% hits | AID 651647;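 active = GFP/RFP ratio change of at least 30% with cell ATP level not reduced by more than half and red fluorescence within 50% of control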; note: strong numbers were not always called active
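Assay system: HT1080 cells carrying an RFP-PRO-GFP reporter | Dosing: Single dose of 20 µM compound, 1% DMSO final | Incubation: Cells overnight before dosing, compound overnight, 37 °C, 5% CO2 | Evaluation: GFP/RFP fluorescence ratio | Control set: DMSO and RFP-L50D-GFP cell wells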
PABP polyA inh: PABP-poly(A) binding inhibition; P11940; PABP-poly(A) RNA binding, fluorescence polarization; inhibition, % at 35 µM; 290,000 compounds, 1% hits; AID 2014;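 active = 50% or more with normal probe brightness, or confirmed in later tests; about a fifth of its hits are not listed in these tables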;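 note: calls also rest on retests at 20 µM and on dose response follow-up; controls were probe without protein and protein plus probe with vehicle; some compounds called inactive have numbers as strong as hits; many hits fall short of the cut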
Target sequence (P11940 whole entry, looked up): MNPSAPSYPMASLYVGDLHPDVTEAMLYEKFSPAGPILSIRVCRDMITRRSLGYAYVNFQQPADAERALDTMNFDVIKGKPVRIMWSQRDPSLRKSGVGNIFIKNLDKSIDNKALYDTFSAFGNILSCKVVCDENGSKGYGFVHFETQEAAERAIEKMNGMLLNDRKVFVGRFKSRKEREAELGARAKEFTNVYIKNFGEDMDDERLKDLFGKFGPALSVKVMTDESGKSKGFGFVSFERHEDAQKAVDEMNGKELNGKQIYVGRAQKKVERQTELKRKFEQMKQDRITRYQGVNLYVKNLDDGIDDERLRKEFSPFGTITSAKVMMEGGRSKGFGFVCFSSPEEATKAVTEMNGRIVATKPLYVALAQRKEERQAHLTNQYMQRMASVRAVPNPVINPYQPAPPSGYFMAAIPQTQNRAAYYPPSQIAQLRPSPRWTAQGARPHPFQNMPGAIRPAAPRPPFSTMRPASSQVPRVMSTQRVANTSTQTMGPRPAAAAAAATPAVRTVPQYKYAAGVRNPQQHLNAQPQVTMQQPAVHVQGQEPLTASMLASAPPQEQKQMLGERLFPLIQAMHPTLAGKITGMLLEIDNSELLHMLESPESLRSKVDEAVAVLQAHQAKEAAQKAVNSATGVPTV
CSC inhib: cancer stem cell inhibition. 300,000 compounds, 1.1% hits. inhibition, % at 7.5 µM. cancer stem cell-like cells viability, luminescence;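 active = mean at 75% or more and at least half the replicates too; tested in HMLE shEcad cells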;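 note: 0% = median of negative and 100% = median of positive control wells; the first replicate is given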
Env fusion inh: HIV envelope-mediated fusion inhibition; HeLa-JRFL Env/CEM21 cell fusion, luciferase; inhibition, % at 12.3 µM; 360,000 compounds, 1.1% hits;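 active = mean replicate inhibition score of at least 50 and every replicate individually at or above 50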;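 note: 0% = plate neutral controls and 100% = maraviroc near 300 nM; one replicate is shown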
Yeast UUG start: modulators of start codon recognition fidelity in yeast; S. cerevisiae UUG-firefly luciferase reporter, luminescence/redox ratio; activity score, % at 18.7 µM; 350,000 compounds, 0.13% hits; AID 602363;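 active = replicate mean at a twofold rise or more, about +100% in these data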;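 note: firefly luciferase made from a UUG start codon reports start codon fidelity; reporter light over untreated wells divided by growth signal over untreated wells; some hits fall short of that in this replicate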
MT1-MMP act inh RFP: recorded beside MT1-MMP act inh, whose call it bears; RFP signal change, %; measured here: RFP expression control read;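 0 = vehicle wells; hits needed this value within 50% of zero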
The depositor's hits bear a star; & = joins results of further samples.

Results for CC(=O)c1ccc(C(=O)NC2CCCN(Cc3ccccc3F)C2)cc1 (centres undefined) ?
Rce1 inh: inactive; eIF4H FP inh: 2; MT1-MMP act inh: 9; PABP polyA inh: 4; CSC inhib: -15; Env fusion inh: 5; Yeast UUG start: -24; MT1-MMP act inh RFP: -2

What do the screens show for `CC(OC(=O)Cn1cnc2c1c(=O)n(C)c(=O)n2C)C(=O)c1ccccc1` (centres undefined)?
Rce1 inh: inactive; MT1-MMP act inh: 0; CSC inhib: -8; Env fusion inh: 3; Yeast UUG start: -4; MT1-MMP act inh RFP: -2

How did O=C(NCc1ccccn1)Nc1cccc(Cl)c1Cl do in these assays?
Rce1 inh: inactive; eIF4H FP inh: -10; MT1-MMP act inh: 1; PABP polyA inh: -11; CSC inhib: -15; Env fusion inh: -24; Yeast UUG start: -20; MT1-MMP act inh RFP: -1

How did CN(C)c1ccc(C(=O)N/N=C/c2ccccn2)cc1 do in these assays?
Rce1 inh: inactive; eIF4H FP inh: -4; MT1-MMP act inh: 0; PABP polyA inh: 5; CSC inhib: 3; Yeast UUG start: -16; MT1-MMP act inh RFP: 3

How did O=C(NNC(=O)c1ccc(Cl)cc1Cl)c1ccncc1 do in these assays?
Rce1 inh: inactive; eIF4H FP inh: -3; MT1-MMP act inh: -5; PABP polyA inh: -1; CSC inhib: -17; Env fusion inh: -10; MT1-MMP act inh RFP: -2

How did CN(C)C(=O)c1nc2ccc(Cl)cn2c1CN1CCN(c2ncccn2)CC1 do in these assays?
Rce1 inh: inactive; eIF4H FP inh: -9; MT1-MMP act inh: -1; PABP polyA inh: 2; CSC inhib: -5; Env fusion inh: -19; Yeast UUG start: 16; MT1-MMP act inh RFP: 6

How did COC(=O)C1=CN(Cc2cccs2)C=C(C(=O)OC)C1c1cccc(OC)c1OC do in these assays?
Rce1 inh: inactive; eIF4H FP inh: -17; MT1-MMP act inh: -4; PABP polyA inh: 10; Yeast UUG start: -12; MT1-MMP act inh RFP: 4

Results for Cc1cc(Cl)ccc1C(=O)C1CCCN(C(=O)CCn2cnnn2)C1 (centres undefined) ?
Rce1 inh: inactive; eIF4H FP inh: 7; MT1-MMP act inh: 0; PABP polyA inh: 4; CSC inhib: -3; Env fusion inh: 6; MT1-MMP act inh RFP: 3

How did Cc1ccccc1NC(=O)Cc1nc(CSc2nnc(-c3ccc4c(c3)OCO4)o2)cs1 do in these assays?
Rce1 inh: inactive; eIF4H FP inh: -5; MT1-MMP act inh: -1; PABP polyA inh: 12; CSC inhib: -12; MT1-MMP act inh RFP: 1

How did Cc1ccccc1Nc1nn2c(=O)c3ccccc3nc2s1 do in these assays?
Rce1 inh: inactive; eIF4H FP inh: 1; MT1-MMP act inh: -3; PABP polyA inh: 7; CSC inhib: -5; Env fusion inh: -134; Yeast UUG start: -17; MT1-MMP act inh RFP: -1

How did COc1ccc(S(=O)(=O)CCC(=O)NCCc2ccc(S(N)(=O)=O)cc2)cc1 do in these assays?
eIF4H FP inh: -1; MT1-MMP act inh: 2; PABP polyA inh: -2; CSC inhib: -6; Yeast UUG start: 11; MT1-MMP act inh RFP: 1

What do the screens show for `COc1ccc(Cl)cc1Nc1nc(-c2cccnc2)cs1`?
Rce1 inh: inactive; eIF4H FP inh: -10; MT1-MMP act inh: -3; PABP polyA inh: -2; CSC inhib: 41; Env fusion inh: -2; Yeast UUG start: 6; MT1-MMP act inh RFP: -6

Next section; the last two above are carried over.
How did COc1ccc(S(=O)(=O)CCC(=O)NCCc2ccc(S(N)(=O)=O)cc2)cc1 do in these assays?
eIF4H FP inh: -1; MT1-MMP act inh: 2; PABP polyA inh: -2; CSC inhib: -6; Yeast UUG start: 11; MT1-MMP act inh RFP: 1

What do the screens show for `COc1ccc(Cl)cc1Nc1nc(-c2cccnc2)cs1`?
Rce1 inh: inactive; eIF4H FP inh: -10; MT1-MMP act inh: -3; PABP polyA inh: -2; CSC inhib: 41; Env fusion inh: -2; Yeast UUG start: 6; MT1-MMP act inh RFP: -6

How did COc1cccc(CN2C(=O)C(C)N(C(=O)c3c(F)cccc3F)c3ccccc32)c1 (centres undefined) do in these assays?
Rce1 inh: inactive; eIF4H FP inh: 5; MT1-MMP act inh: -8; PABP polyA inh: -5; CSC inhib: 15; Env fusion inh: 48; Yeast UUG start: -3; MT1-MMP act inh RFP: -25

Results for Cc1ccccc1-c1cnc(C(O)c2c(C)ccc3ccccc23)[nH]1 (centres undefined) ?
MT1-MMP act inh: -3; Env fusion inh: -4; Yeast UUG start: -12; MT1-MMP act inh RFP: -1

Results for Cc1nnsc1C(=O)N1CCCC1(C)C(=O)O (centres undefined) ?
MT1-MMP act inh: 1; Env fusion inh: -23; Yeast UUG start: -8; MT1-MMP act inh RFP: 5

What do the screens show for `CCOC(=O)C1CCN(CC(O)COc2ccc(S(=O)(=O)N3CCCC3)cc2[N+](=O)[O-])CC1` (centres undefined)?
MT1-MMP act inh: 3; Env fusion inh: -4; Yeast UUG start: -4; MT1-MMP act inh RFP: 3

How did COc1ccc(NC(=O)c2ccccc2F)cc1Cl do in these assays?
Rce1 inh: inactive; eIF4H FP inh: -9; MT1-MMP act inh: 4; PABP polyA inh: -3; CSC inhib: 0; Yeast UUG start: -13; MT1-MMP act inh RFP: 4

Results for O=Cc1ccc(Cl)c(Cl)c1 ?
MT1-MMP act inh: 0; CSC inhib: -7; Yeast UUG start: -12; MT1-MMP act inh RFP: 4

How did O=C(O)c1ccc2c(c1)C(=O)N(CCC1=CCCCC1)C2=O do in these assays?
Rce1 inh: inactive; eIF4H FP inh: 3; MT1-MMP act inh: 4; PABP polyA inh: 4; CSC inhib: -1; Yeast UUG start: -6; MT1-MMP act inh RFP: 3

How did Cc1cccc2cc(CN(CCN3CCOCC3)C(=O)NCc3ccccc3)c(=O)[nH]c12 do in these assays?
Rce1 inh: inactive; eIF4H FP inh: 7; MT1-MMP act inh: 4; PABP polyA inh: 3; CSC inhib: 11; Yeast UUG start: -9; MT1-MMP act inh RFP: 7

Results for Cc1ccccc1NC(=O)Nc1cc(-c2ccccc2)nn1C ?
Rce1 inh: inactive; eIF4H FP inh: 3; MT1-MMP act inh: 4; PABP polyA inh: -2; CSC inhib: -11; Env fusion inh: 9; MT1-MMP act inh RFP: 3

What do the screens show for `CCCNC(=O)c1[nH]c(C)c(C(=O)OCC)c1C`?
Rce1 inh: inactive; eIF4H FP inh: -2; PABP polyA inh: -4; CSC inhib: -2

How did CN(CC(=O)NC1(C)CCS(=O)(=O)C1)S(=O)(=O)c1ccc(Cl)cc1 (centres undefined) do in these assays?
Rce1 inh: inactive; MT1-MMP act inh: -2; CSC inhib: -4; Env fusion inh: 0; Yeast UUG start: 3; MT1-MMP act inh RFP: 2

What do the screens show for `Cc1ccc(-n2c(CNc3ccc(F)cc3)nnc2SCC(=O)O)cc1`?
Rce1 inh: inactive; eIF4H FP inh: -6; MT1-MMP act inh: 4; PABP polyA inh: 10; CSC inhib: -16; Env fusion inh: 1; Yeast UUG start: 0; MT1-MMP act inh RFP: 7

Fetched one by one from the list above, two records:
Results for O=Cc1ccc(Cl)c(Cl)c1 ?
MT1-MMP act inh: 0; CSC inhib: -7; Yeast UUG start: -12; MT1-MMP act inh RFP: 4

How did Cc1cccc2cc(CN(CCN3CCOCC3)C(=O)NCc3ccccc3)c(=O)[nH]c12 do in these assays?
Rce1 inh: inactive; eIF4H FP inh: 7; MT1-MMP act inh: 4; PABP polyA inh: 3; CSC inhib: 11; Yeast UUG start: -9; MT1-MMP act inh RFP: 7

Other results follow.
Results for O=C(COc1ccc(Cl)cc1)NCc1nnc(SCC(=O)Nc2ccc3c(c2)OCCO3)o1 ?
Rce1 inh: inactive; eIF4H FP inh: -9; MT1-MMP act inh: 4; PABP polyA inh: -7; CSC inhib: -16; Env fusion inh: -70; Yeast UUG start: -13; MT1-MMP act inh RFP: 5

What do the screens show for `Cc1cccc(C)c1Nc1nnc(SCC(=O)NCc2ccco2)s1`?
Rce1 inh: inactive; eIF4H FP inh: 12; MT1-MMP act inh: 1; PABP polyA inh: 2; CSC inhib: -4; Yeast UUG start: 3; MT1-MMP act inh RFP: 1

How did CC(C)=C(NC(=O)c1ccccc1)C(=O)Nc1cccc(C(=O)O)c1 do in these assays?
Rce1 inh: inactive; eIF4H FP inh: 2; MT1-MMP act inh: -4; PABP polyA inh: 0; CSC inhib: -10; Env fusion inh: -4; MT1-MMP act inh RFP: -6

Results for C[C@@H]1CN([C@@H](C)CO)C(=O)CCCn2nncc2CO[C@H]1CN(C)Cc1ccccc1C(F)(F)F ?
MT1-MMP act inh: -3; Env fusion inh: 33; Yeast UUG start: -11&-10&-4; MT1-MMP act inh RFP: -7

What do the screens show for `CNC(=S)N/N=C/c1c(C)nn(-c2cccc(Cl)c2)c1Cl`?
Rce1 inh: inactive; eIF4H FP inh: -12; MT1-MMP act inh: 5; PABP polyA inh: -4; CSC inhib: 6; Env fusion inh: -47; Yeast UUG start: -21; MT1-MMP act inh RFP: -4

Results for COc1ccc(C(c2c(O)nc[nH]c2=O)c2c(O)nc[nH]c2=O)cc1 ?
Rce1 inh: inactive; eIF4H FP inh: -4; PABP polyA inh: 8; CSC inhib: -10; Env fusion inh: 5

How did Cn1c2c(c(=O)n(C)c1=O)C(c1cc3c(cc1Br)OCO3)CC(=O)N2 (centres undefined) do in these assays?
Rce1 inh: inactive; eIF4H FP inh: -4; MT1-MMP act inh: 3; PABP polyA inh: 3; CSC inhib: 5; Env fusion inh: 9; Yeast UUG start: -8; MT1-MMP act inh RFP: 0

Results for CCCC(C(=O)O)N1C(=O)/C(=C2\C(=O)N(C)c3ccccc32)SC1=S (centres undefined) ?
eIF4H FP inh: 2; MT1-MMP act inh: 11; PABP polyA inh: 0; CSC inhib: 0; Env fusion inh: -14; MT1-MMP act inh RFP: 4

How did O=C(N/N=C\c1cccc(F)c1)c1ccc(-c2ccccc2)cc1 do in these assays?
Rce1 inh: inactive; eIF4H FP inh: 5; MT1-MMP act inh: 1; PABP polyA inh: -4; CSC inhib: -6; Env fusion inh: -7; Yeast UUG start: -15; MT1-MMP act inh RFP: 3

What do the screens show for `CSc1ncccc1C(=O)OCC(=O)c1cc(C)n(CC2CCCO2)c1C` (centres undefined)?
Rce1 inh: inactive; eIF4H FP inh: -7; MT1-MMP act inh: 4; PABP polyA inh: 11; CSC inhib: -20; Env fusion inh: -42; Yeast UUG start: -46; MT1-MMP act inh RFP: -1

Results for O=C(CCn1nnnc1CN1CCOCC1)N1CCC(c2ccccc2Cl)C1 (centres undefined) ?
Rce1 inh: inactive; eIF4H FP inh: -5; MT1-MMP act inh: -3; PABP polyA inh: 3; CSC inhib: -8; Env fusion inh: -7; Yeast UUG start: -5; MT1-MMP act inh RFP: -2

Results for CCOc1ccccc1NC(=O)NC1CCCc2ccccc21 (centres undefined) ?
Rce1 inh: inactive; eIF4H FP inh: 0; MT1-MMP act inh: 2; PABP polyA inh: 6; CSC inhib: -14; Env fusion inh: 59*; Yeast UUG start: -16; MT1-MMP act inh RFP: -8

Results for Cc1cc(C)n(CCNCc2c(C(=O)N3C[C@@H](C)O[C@@H](C)C3)nc3ccc(Cl)cn23)n1 ?
Rce1 inh: inactive; eIF4H FP inh: 1; MT1-MMP act inh: 6; PABP polyA inh: -1; CSC inhib: 0; Env fusion inh: -2; Yeast UUG start: -11; MT1-MMP act inh RFP: 0

Results for Cc1ccc(S(=O)(=O)N2CCC(C(=O)OC(C)C(=O)N3CCOCC3)CC2)cc1 (centres undefined) ?
Rce1 inh: inactive; MT1-MMP act inh: 1; CSC inhib: 24; Env fusion inh: -13; Yeast UUG start: -9; MT1-MMP act inh RFP: 1

These rows are one share of the data (hit frequency here may not be typical).
